# FGF22 binding = FGF22 (human) thermal shift binding; 340,000 compounds, 1.5% hits; calls only at 9.99 µM; recombinant FGF22 thermal shift, SYPRO orange fluorescence; percent of sucrose octasulfate shift, DMSO zero; Q9HCT0;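 active means melting point raised past a set limit in the mean and every replicate; inconclusive means no clear call; three in four hits are not shown here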
# Target sequence (Q9HCT0 whole entry, looked up): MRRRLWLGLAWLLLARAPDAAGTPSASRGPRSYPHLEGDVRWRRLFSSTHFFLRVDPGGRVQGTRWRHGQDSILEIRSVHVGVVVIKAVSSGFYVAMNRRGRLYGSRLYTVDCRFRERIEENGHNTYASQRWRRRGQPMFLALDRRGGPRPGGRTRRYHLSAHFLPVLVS
# Ecoli growth = inhibitors of Escherichia coli growth | OD600, 23 h; active compounds read low | OD600 absorbance (no concentration beside the values) | 330,000 compounds, 0.21% hits;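 active means OD600 absorbance below the run mean of sample wells minus 3.6 SD, in any replicate, cut at about 0.56 in these data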;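 further: stock transfer was 300 nL into about 60 µL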
# UCH37 DUB inh = human UCH37 deubiquitinating enzyme inhibition; Q9Y5K5; 330,000 compounds, 0.33% hits; purified proteasome/UCH37, Ub-AMC cleavage fluorescence; inhibition, % (concentration not given with the values); AID 588478;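 active means mean of two replicates above 20%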;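 further: 0% = compound-free wells with enzyme and 100% = wells lacking proteasome; stock transfer was 100 nL into about 20 µL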
# Target sequence (Q9Y5K5 whole entry, looked up): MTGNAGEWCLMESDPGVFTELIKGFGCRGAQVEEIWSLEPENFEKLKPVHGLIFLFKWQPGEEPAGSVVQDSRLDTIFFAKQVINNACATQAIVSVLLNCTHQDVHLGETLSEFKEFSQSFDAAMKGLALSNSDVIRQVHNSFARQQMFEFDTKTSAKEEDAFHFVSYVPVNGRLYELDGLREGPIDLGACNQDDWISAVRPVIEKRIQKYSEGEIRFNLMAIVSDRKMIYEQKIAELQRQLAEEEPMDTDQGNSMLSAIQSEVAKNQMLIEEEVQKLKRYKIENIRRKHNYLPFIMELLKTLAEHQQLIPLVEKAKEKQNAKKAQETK
#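 Material: human UCH37 enzyme supplied as purified proteasome complex / Amount: 0.15 nM proteasome as dispensed / Buffer or medium: pH 7.4 Tris-HCl (50 mM) with ovalbumin, ATP-MgCl2, DTT / Times: preincubation 30 min, reaction 25 min, room temperature / Technique: AMC fluorescence from Ub-AMC cleavage, excitation 355 nm, emission 460 nm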
# RanGTP-Imp inh = disruptors of Ran-importin-beta complex formation – biochemical, FRET, CFP-Ran, YFP-importin-beta, homogeneous, primary screen; cell-free CFP-Ran/YFP-importin-beta FRET ratio; inhibition, % (no concentration beside the values); 300,000 compounds, 1.1% hits; AID 2216;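 active means most replicates above 15%; inconclusive means exactly half above 15%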;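 further: 0% = DMSO wells and 100% = Ran loaded with GDP instead of GTP; wells of about 40 µL received 100 nL stock; the first replicate is given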
# MLL AF4-AF9 inh = MLL-AF4/AF9 protein interaction inhibition; AlphaScreen, biotin-AF4 peptide binding to FLAG-AF9; AID 651704; inhibition, % at 10 µM; 350,000 compounds, 0.47% hits;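 active means every replicate reaching a set inhibition limit, whatever the replicate mean, cut at about 25% in these data; inconclusive means mean inhibition reaches that limit but some replicates miss it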;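 further: 0% = plate neutral control median and 100% = total signal loss; the record names both 10 and 1 µM as test concentration; the first replicate is given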
# Vif TR-FRET = HIV-1 Vif–A3G interaction blockers – biochemical, TR-FRET, GST-Vif 1-94, biotin-A3G peptide, dose response retest, primary screen (AID 1117319). TR-FRET GST-Vif / biotin-A3G peptide binding; higher % means a stronger effect; test concentration not given here; strong numbers were not always called active. inhibition, %; hits with a dose series show IC50 in µM. 260,000 compounds, 0.57% hits;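 active means above the screen mean plus three standard deviations and confirmed in dose response; inconclusive means results disagree or hit not tested in dose response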;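 further: Vif residues 1-94 fused to GST binding biotinylated APOBEC3G peptide 110-148; 0% = full assay without inhibitor and 100% = GST in place of GST-Vif; retest series ran down from 100 µM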
# HNF4A DNA FP = change in binding of human HNF4 alpha to DNA | HNF4a-FITC DNA binding, fluorescence polarization, 1 h | activity change, % at 10 µM | 360,000 compounds, 0.3% hits | AID 1224865; in the data active means activity change above about 30%, passing the limit was not always enough;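 further: controls were the assay level and a saturating level of protein; the project sought stronger binding though the title names inhibitors; some compounds called inactive have numbers as strong as hits; positive values seem to mean higher polarization but the record does not say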
# Target sequence (P41235 whole entry, looked up): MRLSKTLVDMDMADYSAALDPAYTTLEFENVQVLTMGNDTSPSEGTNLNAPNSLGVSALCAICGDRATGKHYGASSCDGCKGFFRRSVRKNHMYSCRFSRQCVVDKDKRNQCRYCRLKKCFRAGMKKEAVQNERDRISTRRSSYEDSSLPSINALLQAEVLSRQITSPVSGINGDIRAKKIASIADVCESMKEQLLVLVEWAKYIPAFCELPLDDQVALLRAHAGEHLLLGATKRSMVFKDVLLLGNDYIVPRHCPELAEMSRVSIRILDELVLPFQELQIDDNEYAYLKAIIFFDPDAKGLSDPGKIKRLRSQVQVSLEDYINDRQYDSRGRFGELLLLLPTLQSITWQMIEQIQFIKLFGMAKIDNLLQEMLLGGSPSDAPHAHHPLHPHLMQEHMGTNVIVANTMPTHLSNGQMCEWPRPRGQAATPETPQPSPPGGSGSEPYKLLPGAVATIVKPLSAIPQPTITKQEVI
# * hit, by the source's call; i = inactive; ? = inconclusive; / = no result given. Only part of the results is shown. The share of hits here may be higher or lower than overall.
SMILES,FGF22 binding,Ecoli growth,UCH37 DUB inh,RanGTP-Imp inh,MLL AF4-AF9 inh,Vif TR-FRET,HNF4A DNA FP
c1ccc(OCCOc2ncnc3ccccc23)cc1,/,0.73,0.1,0.9,/,14%,-2.5
COCc1ccc(CN2CCCC(CCC(=O)NCc3cccc(OC)c3)C2)o1 (stereo unspecified),i,0.67,0.6,1.3,-0.7,5%,2.8
CCn1cc(S(=O)(=O)Nc2ccccc2C(F)(F)F)cn1,i,0.66,2.6,2.2,-2.6,/,0.9
C#CCN(C(=O)CC1C(=O)NCCN1C/C=C/c1ccccc1)C1CCCCC1 (stereo unspecified),i,0.66,4.9,2.3,4.3,18%,2.1
Cn1c(=O)c2c(n(Cc3ccccc3)c1=O)NC(=O)C2CC(=O)N1CCc2ccccc2C1 (stereo unspecified),/,0.73,-4.1,/,/,?,2.2
COc1ccc2oc(=N)c(C(=O)Nc3ccccc3Cl)cc2c1,i,0.69,0.3,3.1,0.0,0%,-0.6
O=C(O)c1ccc2c(c1)S(=O)(=O)N=C1CCCCCN12,i,0.65,0.4,4.5,-0.6,/,6.3
CC(=O)c1ccc(C(=O)N2CCCC(CCC(=O)N(C)CCc3ccccn3)C2)s1 (stereo unspecified),i,0.7,0.3,-0.2,0.8,/,0.5
O=C(O)CC(Cc1ccc(Cl)cc1)C(=O)NCC12CC3CC(CC(C3)C1)C2 (stereo unspecified),i,0.67,2.7,4.9,0.2,6%,-1.5
O=C(c1ccco1)N1CCN(c2ccc(Cl)cc2)CC1,/,0.66,1.0,4.2,/,4%,0.7
COc1ccc(C)cc1-n1[nH]nnc1=S,/,0.67,5.7,-1.2,-1.9,15%,0.2
CCN(CC(=O)Nc1c(F)cccc1F)C(=O)Cc1n[nH]c(=O)c2ccccc12,i,0.68,5.1,-2.7,-1.0,-1%,-2.0
Cc1noc(/C=C/c2ccco2)c1S(=O)(=O)N1CCC(C(=O)N2CCc3ccccc32)CC1,i,0.79,-0.7,-1.7,5.3,11%,12
CC(NC(=O)OC(C)(C)C)C(=O)N1CCCC1C(=O)NC(Cc1ccccc1)C(N)=O (stereo unspecified),/,0.72,1.8,-0.6,/,4%,2.4
O=C(Cc1cccs1)NCCSc1c(-c2ccc(Cl)cc2)[nH]c2ccccc12,i,0.73,-116,-2.6,2.2,/,-0.1
CC(=O)c1cccc(NS(=O)(=O)c2ccc3c(c2)N(C(C)=O)CCO3)c1,i,0.69,1.2,-1.2,-5.9,/,-0.5
CN(CC(=O)Nc1ccccc1Cl)C(=O)COC(=O)Cc1ccc(F)cc1,i,0.69,4.1,0.4,-0.5,/,-0.8
O=[N+]([O-])c1cc(Cl)cc2c1nc(NCCO)c1ccccc12,i,/,/,2.0,-1.2,4%,-4.9
COc1cccc(COc2ncnc3sccc23)c1,i,0.72,4.5,0.8,-1.3,5%,-0.8
COc1ccccc1OCCNC(=O)C1CC(=O)N(Cc2ccc(C)cc2)C1 (stereo unspecified),i,0.69,-0.5,7.3,6.5,-2%,-0.7
c1ccc(C2CC(c3cccs3)n3nnnc3N2)cc1 (stereo unspecified),/,0.69,3.8,?,/,26%,1.2
CCCOc1ccc(C2C(C(=O)c3ccco3)=C(O)C(=O)N2CCCn2ccnc2)cc1 (stereo unspecified),/,0.73,2.6,?,/,-7%,0.7
O=C(C(=O)N1CCN(c2ccc([N+](=O)[O-])cc2)CC1)c1cn(CC(=O)N2CCOCC2)c2ccccc12,i,0.74,6.3,/,0.7,3%,-0.5
Cc1cc(=O)c(C(=O)OC(C)C(=O)NC(N)=O)nn1-c1ccc(Cl)cc1 (stereo unspecified),i,0.7,6.1,5.7,-3.1,0%,4.2
CC(C)(C)C(=O)Nc1nc2ccc(S(C)(=O)=O)cc2s1,/,0.69,2.5,1.9,/,-1%,-0.8

# (continued)
SMILES,FGF22 binding,Ecoli growth,UCH37 DUB inh,RanGTP-Imp inh,MLL AF4-AF9 inh,Vif TR-FRET,HNF4A DNA FP
CN(C(=O)c1ccc(NC(=O)C2CCN(C(=O)OC(C)(C)C)CC2)cc1)C1CCC1,i,0.69,2.3,/,0.1,/,-0.5
COc1cc(C(=S)N2CCCC2)ccc1OCc1ccc(C)cc1,i,0.69,1.9,?,2.2,/,3.2
COc1cccc(-c2nc(CS(=O)(=O)CC(=O)NCCCN3CCN(C)CC3)c(C)o2)c1,i,0.64,1.3,?,1.4,/,-2.2
OC[C@@H]1CN(Cc2cccs2)C[C@H](n2cnc3c(NC4CCC4)ncnc32)O1,i,/,/,/,2.5,/,-1.0
O=C(NCC1CCCO1)C1CCCN(S(=O)(=O)c2cccc3nsnc23)C1 (stereo unspecified),/,0.69,5.6,0.4,/,0%,5.3
COc1cccc(-c2ccc3c(N)c(C(=O)NC4CC4)sc3n2)c1,i,0.65,-39,-11,-8.6,/,1.4
C=CCN(CC=C)CCOc1cccc(Oc2ccccc2)c1,i,0.64,0.8,2.8,20,6%,0.4
O=C1NC(=O)C(=C2CCOC2=O)N1,i,/,/,/,1.0,0%,2.1
COc1ccc(C(=O)n2cnc3ccccc32)cc1,i,0.66,0.4,-1.8,1.5,/,-0.7
O=C(CN1C(=O)C2C3CCC(C3)C2C1=O)NCc1ccco1 (stereo unspecified),/,0.7,0.4,0.2,-1.7,-1%,-4.9
Cc1ccc(F)cc1C(=O)N1CCOCC1c1cc(C(=O)Nc2ccccc2)no1 (stereo unspecified),i,/,/,/,-0.2,/,-1.4
O=C(Nc1cccc(C(=O)N2CCOCC2)c1)c1ccccc1,/,0.68,1.8,-0.2,/,4%,-4.9
CS(=O)(=O)Nc1ccc(C2=NN(S(C)(=O)=O)C(c3ccc4c(c3)OCO4)C2)cc1 (stereo unspecified),/,0.67,-133,-12,/,-11%,79*
Cc1cc(C(=O)NNC(=S)NC(C)c2ccccc2)cs1 (stereo unspecified),/,0.65,1.0,-1.2,/,2%,1.7
O=C(NCc1cccs1)c1ccc2sc([C@@H]3O[C@H](CO)[C@H](O)[C@H](O)[C@H]3O)nc2c1,i,/,/,/,-1.2,/,-0.5
Cn1c(SCc2nc(-c3ccc(Cl)cc3)no2)nnc1-c1cccs1,/,0.64,2.1,-0.2,/,8%,-5.0
Cn1c(=O)c2c(SCc3cccnc3)nc(C3CC3)nc2n(C)c1=O,i,0.65,0.9,-0.1,3.0,-1%,4.8
COc1ccc(-c2noc(C3CCCN(C(=O)CCc4ccccc4)C3)n2)cc1 (stereo unspecified),/,0.63,5.6,4.9,/,2%,3.2
CCOC(=O)Cc1csc(CC(N)=O)n1,i,0.69,0.4,0.2,-5.8,28%,1.0
O=C(CSc1n[nH]c(=O)n1C1CC1)Nc1ccc(F)c(Cl)c1,i,0.64,0.3,/,-1.4,-1%,2.5
CCN(C(=O)COC(=O)c1nccnc1N)c1cccc2ccccc12,i,0.7,-212,/,0.7,0%,7.3
Cc1sc(NC(=O)c2sc3nc4c(C)cccc4cc3c2N)c(C#N)c1C,/,/,/,-6.3,/,12%,21
CC(C)c1ccc(/C=N/NC(=O)c2ccccn2)cc1,i,/,/,0.2,-0.5,2%,6.0
O=C(Cn1nc(C(F)(F)F)c2c1CCC2)Nc1ccccc1C(F)(F)F,/,0.77,1.0,0.4,/,/,1.4
COc1cc(/C=N/NC(=O)c2cccc(C)c2)ccc1OCC(=O)Nc1ccccc1,i,/,/,1.7,-1.9,/,0.8

# Remaining list, next part.
SMILES,FGF22 binding,Ecoli growth,UCH37 DUB inh,RanGTP-Imp inh,MLL AF4-AF9 inh,Vif TR-FRET,HNF4A DNA FP
COc1ccc(/C=C/C(=O)N[C@@H](C)C(=O)O)cc1,/,0.72,-10.0,-2.5,/,/,1.5
CN1C(=O)/C(=C/c2ccc(OCc3ccc(F)cc3)cc2)NC1=S,i,0.72,0.2,7.8,-1.8,-4%,11
C=CCn1c(C)csc1=Nc1ccc(C(C)=O)cc1,i,0.72,1.4,3.4,4.2,0%,-0.1
Cc1nn(C)cc1C1C(C#N)=C(N)N(c2cccnc2)C2=C1C(=O)CCC2 (stereo unspecified),i,0.68,7.1,2.2,-2.5,7%,-2.3
Cc1cc(N2CCCC2)nc2c(C)cccc12,i,0.67,-22,-0.3,-0.2,-5%,1.0
CC12CCC(C(=O)NCCc3ccccc3)(OC1=O)C2(C)C (stereo unspecified),i,0.66,3.4,-1.8,-3.8,-5%,4.5
CCCC(=O)NCc1nc2ccccc2n1C,/,0.64,-6.2,4.5,/,-4%,0.9
COC[C@@H]1NS(=O)(=O)c2ccc(Br)cc2O[C@H]1c1ccccc1,i,/,/,/,-2.0,/,6.0
O=C(NC1CCCCCC1)c1cccc(COCC(F)(F)F)c1,/,0.66,2.5,-2.0,/,-7%,-4.2
COc1ccc(NC(=O)CSc2nc3[nH]c(=O)cc(O)c3s2)cc1OC,i,0.65,4.6,/,-1.3,/,-0.9
CCOC(=O)C1(C)CCN1C(=O)c1cccc2ccccc12 (stereo unspecified),i,/,/,/,-2.4,/,3.3
c1cnc(-c2nnc3n2CCCCC3)cn1,/,0.71,5.0,3.5,/,?,-0.5
CCOC(=O)c1c(C)[nH]c(C)c1C(=O)COC(=O)/C=C/c1ccc(OC(F)F)cc1,i,0.72,3.2,-2.8,-0.9,/,6.5
COCCNC(=O)c1cc2cc(Br)cc(Br)c2oc1=O,i,0.68,5.0,3.4,-3.9,-10%,-0.5
N#Cc1cc2c(nc1SCc1cccnc1)CCCCC2,/,0.63,0.9,0.1,/,3%,0.6
CCC/C=C/c1ccc(CN2C(C(C)C)C(=O)N(Cc3cn(CCOCOC)nn3)CCS2(=O)=O)cc1 (stereo unspecified),i,/,/,/,3.5,2%,0.7
CC1N=C2c3ccccc3N=C(SCc3cc(=O)n4cc(Cl)ccc4n3)N2C1=O (stereo unspecified),/,0.69,-19,-1.7,/,?,-0.1
COc1ccc(Cl)cc1NC(=O)C(=O)N/N=C/c1cc(C)n(-c2ccc(C)cc2)c1C,/,/,/,5.1,-28,-3%,3.4
O=C(NN=Cc1ccccc1O)C(O)(c1ccccc1)c1ccccc1,i,/,/,/,-5.8,8%,-1.2
S=C(NN=Cc1ccccn1)Nc1ccccn1,i,/,/,/,10,-10%,0.4
C=CCc1cc(C)cc(C)c1OCCn1cncn1,/,0.7,3.4,-1.2,/,22%,2.4
COc1cc2nn(-c3ccccc3N)nc2cc1OC,i,/,/,/,-8.5,0%,3.0
CN1CCN(c2ccc(CNC(=O)c3ccc4c(c3)OCCO4)cc2)CC1,i,0.65,1.6,-2.0,1.3,-8%,0.0
Cc1ccc2[nH]c(C(=O)N/N=C/c3ccccc3C(=O)O)c(-c3ccccc3)c2c1,i,/,/,8.9,0.0,-4%,-2.8
Cn1c(SCC(=O)c2ccccc2)nnc1-c1ccc(O)cc1,/,0.66,0.8,0.2,/,6%,2.2
O=C(c1ccc2ccccc2c1)N1CCc2ccccc21,i,0.63,0.9,-2.2,-0.6,-1%,1.5

# Ordered by value in Ecoli growth (falling): four from the list above.
SMILES | FGF22 binding | Ecoli growth | UCH37 DUB inh | RanGTP-Imp inh | MLL AF4-AF9 inh | Vif TR-FRET | HNF4A DNA FP
COc1ccc(/C=C/C(=O)N[C@@H](C)C(=O)O)cc1 | / | 0.72 | -10.0 | -2.5 | / | / | 1.5
Cc1nn(C)cc1C1C(C#N)=C(N)N(c2cccnc2)C2=C1C(=O)CCC2 (stereo unspecified) | i | 0.68 | 7.1 | 2.2 | -2.5 | 7% | -2.3
CN1CCN(c2ccc(CNC(=O)c3ccc4c(c3)OCCO4)cc2)CC1 | i | 0.65 | 1.6 | -2.0 | 1.3 | -8% | 0.0
CCCC(=O)NCc1nc2ccccc2n1C | / | 0.64 | -6.2 | 4.5 | / | -4% | 0.9

# High-throughput results deposited in PubChem BioAssay by several laboratories.
